PINK1 expr mod: changes PINK1 expression; PINK1 immunofluorescence, high-content cytometry, 24 h; Potency, µM (top dose mostly 76.6 µM), without a hit: top-dose activation (PINK1 increase), most hits filed as activators; 410,000 compounds, 0.2% hits; active = well fitted activation curve with a large enough effect; inconclusive = small, poorly fitted or top-dose-only effect; inactive = flat fitted curve, though single readings scatter; cell line not stated here;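 note: potency is the fitted concentration of half-maximal effect; % of control where 0% means no effect; nearly all actives have a fitted effect of over 65% in size; a mitochondrial uncoupler was the plate control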
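Fluorescence from anti-PINK1 antibody, together with nuclear and cell stains, was scanned on a laser-scanning cytometer. Before staining, stable-line cells were incubated 24 hours with compounds at 5 concentrations; primary antibody 12 h at 10 degrees C.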
CtBP-E1A blk: inhibitors of CtBP/E1A interaction | AlphaScreen GST-E1A/His-CtBP binding, 1536-well; stronger effect = lower value; control for the full effect not named in the record | activity change, % (no concentration beside the values) | 340,000 compounds, 0.49% hits; in the data active means activity change below about -65%; inconclusive means about -30% to -65%; inactive means above about -30%; note: % is set by controls: 0 for no effect and ±100 for the full control effect
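Homogeneous bead-based format: GST-tagged E1A captured on glutathione donor beads, His-tagged CtBP on nickel acceptor beads; compounds precede bead addition by 2 h at 37 °C.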
TRPML1 agonist: agonists of human TRPML1 channel. TRPML1-expressing cells, Ca2+ dye fluorescence, FDSS; host cell line not named in the record; reference of the full effect not given here. activation, % (no concentration beside the values). AID 624414. 410,000 compounds, 0.12% hits; in the data active = activation above about 50%; inconclusive = about 30% to 50%; inactive = below about 30%; note: 0% is about no effect; the text of the record puts the active cut at 80%
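In this qHTS format, compounds were pin-transferred onto Ca8-dye-loaded TRPML1-DL cells induced with Tet overnight, and intracellular Ca2+ fluorescence was recorded kinetically for 110 s after a 10 s baseline. A subsequent 4uM final 54-4 (EC80) addition followed by a second 110 s read served as the antagonist phase.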
TRPML1 blocker: inhibitors of human TRPML1 channel | AID 624415 | TRPML1-inducible cells, Ca2+ dye fluorescence, FDSS; stronger effect = lower value; inhibition of EC80 agonist-evoked calcium signal | Q9GZU1 | 390,000 compounds, 0.02% hits | activity change, negative = inhibition, % (concentration not given with the values); in the data active means activity change below about -50%; inconclusive means about -30% to -50%; inactive means above about -30%;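 note: stimulus is agonist 54-4 at its EC80 concentration; % is set by controls: 0 for no effect and ±100 for the full control effect; the text of the record puts the active cut at -80%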
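TRPML1-DL cells, Tet-induced overnight (~16 h, 37 °C) at 1,500 cells/well, were loaded with Ca8 no-wash dye plus quencher for 45-90 min at room temperature. Compounds were pinned during FDSS kinetic reading; agonist 54-4 at EC80 (4 uM final) then added.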
D2 ag: agonists of human D2 dopamine receptor (beta-arrestin) | P14416 | DiscoveRx PathHunter D2 beta-arrestin, luminescence, 90 min; 100% = 57 uM dopamine signal | activation, % (no concentration beside the values) | 360,000 compounds, 0.084% hits; in the data active = activation above about 40%; inconclusive = about 15% to 40%; inactive = below about 15%; note: compound concentration not given in the record; the text of the record calls up to 30% inactive
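DiscoveRx PathHunter D2 beta-arrestin cells (2,100/well) attached overnight, then compound-stimulated 90 min at 37 C in HBSS/10 mM HEPES/0.1% Tween-20 buffer; beta-galactosidase complementation read by luminescence after 1 h at ambient temperature. Dopamine 57 uM final (EC100) as control.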
Six1-Eya2 blk: blocks human Six1 binding to Eya2; Q15475+O00167; AlphaScreen GST-Six1/His-Eya2 binding, biochemical; stronger effect = lower value; control for the full effect not named in the record; activity change, % (no concentration beside the values); 360,000 compounds, 0.56% hits; AID 651725; in the data active = activity change below about -65%; inconclusive = about -30% to -65%; inactive = above about -30%; note: % is set by controls: 0 for no effect and ±100 for the full control effect
Target sequence (O00167 whole entry, looked up): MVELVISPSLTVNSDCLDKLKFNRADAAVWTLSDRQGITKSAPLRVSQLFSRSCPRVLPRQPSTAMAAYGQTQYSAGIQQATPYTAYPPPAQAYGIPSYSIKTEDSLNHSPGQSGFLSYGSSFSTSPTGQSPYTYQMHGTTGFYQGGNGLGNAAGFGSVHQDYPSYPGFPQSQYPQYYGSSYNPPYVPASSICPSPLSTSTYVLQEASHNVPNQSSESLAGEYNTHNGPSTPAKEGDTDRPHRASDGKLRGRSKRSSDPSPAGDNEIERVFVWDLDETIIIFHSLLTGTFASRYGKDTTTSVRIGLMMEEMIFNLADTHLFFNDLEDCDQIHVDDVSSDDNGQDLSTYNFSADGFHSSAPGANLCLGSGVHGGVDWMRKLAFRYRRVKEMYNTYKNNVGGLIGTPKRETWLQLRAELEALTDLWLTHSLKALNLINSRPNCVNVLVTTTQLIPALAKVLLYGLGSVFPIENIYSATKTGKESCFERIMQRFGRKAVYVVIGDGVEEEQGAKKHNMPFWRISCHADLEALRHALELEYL
Target sequence (Q15475 whole entry, looked up): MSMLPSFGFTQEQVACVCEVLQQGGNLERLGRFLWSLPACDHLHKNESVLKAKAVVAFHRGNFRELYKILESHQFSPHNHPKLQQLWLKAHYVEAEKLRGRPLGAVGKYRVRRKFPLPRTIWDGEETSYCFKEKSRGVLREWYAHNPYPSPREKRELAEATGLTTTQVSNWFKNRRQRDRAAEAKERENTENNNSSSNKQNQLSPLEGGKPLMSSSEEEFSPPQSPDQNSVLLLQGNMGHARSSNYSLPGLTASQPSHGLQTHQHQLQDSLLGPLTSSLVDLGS
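Compounds are tested against tagged Six1 and Eya2 proteins bridged by glutathione donor and nickel acceptor beads; after a one-hour incubation at 37 °C without light, AlphaScreen emission is recorded.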
* marks the source's active call; other numbers are inactive results; ? = inconclusive; / = no result given; & = joins results of further samples; [ ] = dose if it differs, or a comment.

SMILES	PINK1 expr mod	CtBP-E1A blk	TRPML1 agonist	TRPML1 blocker	D2 ag	Six1-Eya2 blk
Cc1cc(C)cc(NC(=O)C2CCCN2S(=O)(=O)c2cccc3cccnc23)c1 (configuration not stated)	1.9%	-2.5	0.6	-17.4	-0.9	-2.7
O=C(Nc1ccc(F)cc1)C1CC2CCC1C2 (configuration not stated)	-1.6%	/	0.4	11.7	13.0	0.9
O=C(CSc1nc2ccccc2o1)N/N=C/c1ccccc1	3.1%	-9.3	2.1	11.5	-2.9	-7.1
O=C(O)CCCCCCCCc1cn(CCc2c[nH]c3ccccc23)nn1	0.7%	-1.2	-0.4&-0.5	0.9	-1.5	-1.7
Cc1ccc(-n2c(=O)c3ccc(C(=O)NCc4ccco4)cc3n(Cc3ccccc3Cl)c2=O)cc1	6.5%	/	0.1	-3.9	/	/
CC(Sc1nc2ncc(Cl)cc2[nH]1)C(=O)Nc1ccccc1[N+](=O)[O-] (configuration not stated)	6.3%	-1.7	0.9	-4.3	0.2	2.5
COC(=O)CN1C(=O)[C@H]2[C@@H](c3ccc(C)o3)N3C(=O)CN(CCO)C(=O)[C@@]3(Cc3ccccc3)[C@H]2C1=O	0.4%	7.6	-0.4	-20.3	-3.1	-2.5
CC1(Oc2ccc(CC#N)cc2)CCN(Cc2ccc(-n3ccnc3)cc2)C1 (configuration not stated)	-0.5%	-5.4	-0.8	/	3.7	-8.2
Fc1ccc(COc2ccccc2C(=S)N2CCCC2)cc1	1.3%	5.3	0.2	8.2	-2.0	2.7
CN(C)/C=N/c1ncc(-c2ncc(C(F)(F)F)cc2Cl)cn1	-1.0%	-9.3	-0.9	3.3	-3.1	7.5
O=C1c2ccccc2C(=O)N1CCCc1cn(C[C@H]2CC[C@@H]([C@@H]3CC[C@H](Cn4cc(CCCN5C(=O)c6ccccc6C5=O)nn4)O3)O2)nn1	0.3%	2.4	2.5	-10.5	0.1	-0.5
C/C(=N\NS(C)(=O)=O)c1ccc(C)cc1	0.5%	-9.3	0.5	10.9	-3.3	-4.3
CCOC(=O)CC(=O)CSc1ncnc2c1nnn2-c1ccc(OC)cc1	0.8%	-7.5	-0.5	4.2	-0.7	-13.1
COc1ccc(S(=O)(=O)Nc2ccccc2C(=O)NC2CC2)cc1NC(C)=O	1.5%	/	-0.8	4.0	-4.2	-0.7
COc1ccc(CNC(=O)c2cnn(-c3ccc(F)cc3)c2-n2cccc2)cc1	-0.3%	/	2.5	-14.1	/	/
Cc1onc(-c2ccccc2)c1C(=O)N/N=C/c1cc(Br)c(Br)o1	0.4%	-14.1	0.7	-3.7	-0.4	-10.7
COc1ccc(-c2noc(CCCC(=O)NC3CCCC3)n2)cc1	-0.3%	6.1	-0.3	2.7	1.4	-5.0
CCN(CC(=O)Nc1ccc2c(c1)OCCO2)C(=O)C(C)Oc1ccc(Cl)cc1 (configuration not stated)	0.1%	0.9	-0.6	-7.2	-0.1	-4.1
O=S(=O)(c1ccccc1)N1CCN(CC2CC3C=CC2C3)CC1 (configuration not stated)	-1.1%	/	0.1	-9.7	-3.9	2.4
COc1ccc(S(=O)(=O)N(CC(=O)Nc2cc(C)on2)Cc2ccccc2)cc1	-5.6%	-16.2	4.4	24.8	-0.5	-0.7

Brought forward from above: 2 compounds; new compounds follow.
SMILES	PINK1 expr mod	CtBP-E1A blk	TRPML1 agonist	TRPML1 blocker	D2 ag	Six1-Eya2 blk
O=S(=O)(c1ccccc1)N1CCN(CC2CC3C=CC2C3)CC1 (configuration not stated)	-1.1%	/	0.1	-9.7	-3.9	2.4
COc1ccc(S(=O)(=O)N(CC(=O)Nc2cc(C)on2)Cc2ccccc2)cc1	-5.6%	-16.2	4.4	24.8	-0.5	-0.7
COc1ccc(NC(=O)C2C3CC/C=C\CCC32)cc1 (configuration not stated)	1.5%	0.1	-0.2	-4.4	0.8	-2.2
CCOc1ccccc1-c1cc(C(=O)N2CCOCC2)c2ccccc2n1	-2.5%	-3.1	0.6	-3.8	0.1	2.1
COc1ccc(C(CC(=O)Nc2ccc(C)cc2)NC(=O)C(F)(F)F)cc1 (configuration not stated)	-3.1%	10.3	-0.5	-13.5	0.6	8.9
COc1ccc(-c2nc3ccccc3c(=O)[nH]2)cc1	1.6%	6.7	0.2	-13.0	-2.7	-3.6
COC(=O)c1cc(=O)nc(NN=Cc2ccc(OC)cc2)s1	1.3%	5.2	-0.5	/	-4.1	5.2
CSc1ccc(/C=N/N2CCN(c3ccccc3)CC2)cc1	2.6%	7.8	0.7	-0.8	9.0	-1.4
Cc1cccc(OCC(=O)Nc2ccc3c(c2)N(C)C(=O)c2ccccc2S3)c1	2.8%	/	0.1	27.3	/	/
O=C1CN(C(=O)CSc2ccccn2)c2ccccc2N1	-0.5%	3.5	0.7	-0.2	3.0	0.2
Cc1coc2c(C)c3oc(=O)cc(-c4ccccc4)c3cc12	6.8%	3.4	2.1	-7.6	-1.5	0.3
Cn1c(CSc2ncccn2)nnc1SCC(=O)N1CCCCC1	-1.6%[38.3 µM]	0.4	0.3	-20.7	-2.0	2.2
CC(=O)c1cc(CN2CCC(n3nccc3NC(=O)c3ccccc3Cl)CC2)cs1	0.5%	-0.5	-0.2	-10.0	-4.3	-1.6
c1ccc(-c2ccc(Oc3cc(N4CCOCC4)nc(-c4ccccc4)n3)cc2)cc1	6.2%[38.3 µM]	0.5	0.0	-6.1	-3.2	-1.8
Cc1cccc(NC(=O)CN2C(=O)N/C(=C/c3ccc(C)o3)C2=O)c1	0.6%	8.4	0.2	11.3	-7.6	-16.1
CCc1ccc2nc(N(Cc3cccnc3)C(=O)c3ccc(C#N)cc3)sc2c1	19.4%	/	3.1	66.0	/	/
Cc1cc(C)cc(Cn2cc(CN3CC(N4CCN(C)CC4)CS3(=O)=O)nn2)c1 (configuration not stated)	1.9%	-4.7	-0.2	/	/	6.6
N#Cc1ccccc1Cn1c(=O)n(CCCC(=O)NCc2ccc3c(c2)OCO3)c(=O)c2ccccc21	4.2%	9.2	-0.5	-29.7	1.5	-3.0
CC(C)C(=O)NNS(=O)(=O)c1ccccc1	1.8%	-7.1	-0.4	3.3	-4.3	-8.0
O=C(CSc1ccccn1)Nc1ccc2[nH]c(=O)[nH]c2c1	-0.5%	-10.7	2.5	-21.1	6.2	-0.9
OCCC1CN(Cc2ccccc2O)CCN1CCCc1ccccc1 (configuration not stated)	-0.5%	/	0.2	-4.5	-2.4	20.0
CC(c1ccccc1)N(CCC(c1ccccc1)C1CCOC(C)(C)C1)C(=O)c1ccco1 (configuration not stated)	16.5%	-3.8	2.2	35.3	-5.6	-11.3
COc1ccc(CC(=O)N2CCOCC2)cc1OC	-0.3%	6.3	-0.4	13.6	-0.9	-0.7
Cc1ccc(CNCC2CCCO2)o1 (configuration not stated)	3.6%	2.8	0.4	-0.7	-1.6	1.4
CC(C)(C)NC(=O)CN(C(=O)c1ccc(CN2CCOCC2)o1)c1ccc2c(c1)OCCO2	0.4%	23.7	0.6	-1.4	-3.6	13.5
CN1CCN(CCCCOc2ccc(Br)cc2)CC1	-1.4%	/	-0.7	-3.8	-1.7	-6.6
CCOC(=O)C1=C(COC(=O)[C@@H]2CCCN2S(=O)(=O)c2ccc(C)cc2)NC(=O)NC1C (some centres not stated)	0.8%	3.5	0.4	4.3	-4.8	-0.4
CCN(CC)c1ccc(NC(=O)c2[nH]c(C)c(C(C)=O)c2C)c(C)c1	1.2%	-5.1	-0.8	-1.6	-0.3	1.9
COc1ccc(-n2nnc3c(SC(C(C)=O)C(=O)N(C)C)ncnc32)cc1 (configuration not stated)	-0.3%	-2.2	-0.6	-7.0	-6.0	-5.5
CCOCC(=O)Nc1nnc(C)s1	-1.3%	14.5	-0.5	2.9	-3.3	17.7
CCOc1ccc(CCNc2nc3ccc(C)cc3n3cnnc23)cc1OCC	9.1%	4.3	3.2	0.0	2.0	-2.1
COc1ccc(OCC(O)CNC(=O)c2ccccc2)cc1 (configuration not stated)	-1.8%	/	1.0	-2.4	-1.7	-3.2
CCC(CO)Nc1ncnc2c1cnn2-c1ccc(C)cc1 (configuration not stated)	0.2%	/	1.7	41.8	/	/
COc1ccc(NC(=O)N(C)[C@H]2C[C@H]3c4[nH]c5ccccc5c4CCN3C(=O)[C@H]2[C@H](C)O)cc1	0.9%	-26.9	-0.1	-8.9	-7.2	-6.6
O=C(NCc1ccncc1)c1ccc(Cl)c(S(=O)(=O)N2CCCCC2)c1	1.9%	/	1.3	-5.2	-3.4	13.5
CCCOc1ccc(/C=N/NC(=O)CN2CCCCC2)cc1OCC	-0.3%	-12.8	0.3	6.8	3.0	4.2
Nc1nc(-c2ccc3c(c2)CCCC3)c(CC(=O)O)s1	1.7%	1.9	0.4	1.5	3.5	4.2
O=[N+]([O-])c1ccc(Cl)c(CN2CCC(O)CC2)c1	-0.8%	5.2	-0.5	-5.6	-0.5	4.1
COc1ccc(-n2c(C)cc(/C=N/Nc3nc(N4CCOCC4)nc(N4CCOCC4)n3)c2C)cc1	4.0%	-10.7	0.6	-17.6	-2.4	-11.8
CC(=O)Nc1ccc([N+](=O)[O-])cn1	2.9%	5.0	-0.2	13.2	-3.3	0.4
COc1cc(C(C(=O)NC(C)(C)C)N(Cc2ccccc2)C(=O)c2cnccn2)cc(OC)c1OC (configuration not stated)	0.5%[38.3 µM]	10.2	1.9	-8.5	1.0	0.9
Cc1cccnc1NC(=O)C1CC(=O)N(c2ccc3c(c2)OCCO3)C1 (configuration not stated)	0.7%	-1.2	0.6	13.3	-4.1	-4.0
O=C(Nc1ccncc1)c1ccc2c(c1)OCCO2	-2.0%	4.5	-1.1	25.3	4.2	4.7
COc1ccc(-c2c(-c3ccccc3OC)sc3ccccc23)cc1	7.6%	/	-0.1	-6.4	-7.1	-7.7
NS(=O)(=O)Nc1cccc2cccnc12	-0.8%	/	1.3	10.7	/	/
C[C@@H]1CN([C@H](C)CO)C(=O)c2cc(Br)cnc2O[C@@H]1CN(C)C(=O)c1ccccc1	-0.1%	5.0	/	/	-1.6	-2.6
COc1ccc(OCC(=O)Nc2ccc(C(=O)Nc3ccccc3C(=O)O)cc2)cc1	-0.6%	?	0.4	19.1	-1.3	?
COc1ccccc1N(CC(=O)N1CCCCCC1)S(C)(=O)=O	-3.7%[38.3 µM]	-0.1	0.8	-6.7	-0.1	6.0
COc1ccccc1NC(=O)C1=C(C)Nc2nc(SCc3ccccc3Cl)nn2C1c1cccnc1 (configuration not stated)	10.8%	/	-0.2	-2.6	/	/
Cc1ccc(N2C(=O)CS(=O)(=O)CC2=O)cc1	0.9%	9.6	-0.7	-2.9	6.0	-6.4
Cn1nc(C(F)(F)F)c(/C=N/OC(=O)c2ccccc2)c1SCc1ccc(Cl)cc1	1.2%	6.9	-1.3	-1.5	0.4	2.2
COc1ccc(C(=O)C(OC(=O)c2ccc(C)c(NC(C)=O)c2)c2ccccc2)cc1 (configuration not stated)	0.7%	-9.7	1.0	4.9	-5.5	-12.5

Screens as filed in PubChem BioAssay.
